# HSV replic up: HSV replication enhancement; HSV replication augmentation in cells, fold increase; maximum fold increase; hit rate 0.005% among 220,000;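 active = peak rise of 1.5-fold or more in the series; inconclusive = self-fluorescent or not available for retest; tested in PC3 cells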;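 note: first round at 10 µM; read as green reporter fluorescence; hits show the peak of a series up to 25 µM; 1 = signal of infected wells without compound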
# GALR2 agonist: activates the human galanin receptor 2; hit rate 0.48% among 140,000; O43603; AID 803; activation, %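 (tested at 5 µM)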; GALR2-expressing cells, agonist activation read-out;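 active = above mean plus 3 SD of all compounds, about 5% in these data, not always enough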;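 note: 0% = vehicle buffer wells and 100% = reference agonist at full effect; tested in CHO reporter cells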
# INS promoter inh: TRM-6 insulin promoter activity inhibition; TRM-6 cells (human fetal islet line), insulin promoter-eGFP reporter, imaging; reporter expression induced with tamoxifen; inhibition, % at 2 µM; hit rate 0.9% among 130,000; AID 1273;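 active = inhibition above the mean plus 3 SD, with well images judged a real hit on visual review, cut at about 60% in these data, passing the limit was not always enough; inconclusive = inhibition over the cutoff but images rejected on review; inactive = inhibition not above the cutoff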
# PKD1 kinase inh: blocks activity of human protein kinase D1. Q15139. PKD1 kinase fluorescence polarization assay. inhibition, %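 (about 10 µM by stock and volumes)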. hit rate 0.056% among 200,000;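 active = inhibition of 50% or more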;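 note: controls were vehicle for no effect and a reference inhibitor for full effect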
# Target sequence (Q15139 whole entry, looked up): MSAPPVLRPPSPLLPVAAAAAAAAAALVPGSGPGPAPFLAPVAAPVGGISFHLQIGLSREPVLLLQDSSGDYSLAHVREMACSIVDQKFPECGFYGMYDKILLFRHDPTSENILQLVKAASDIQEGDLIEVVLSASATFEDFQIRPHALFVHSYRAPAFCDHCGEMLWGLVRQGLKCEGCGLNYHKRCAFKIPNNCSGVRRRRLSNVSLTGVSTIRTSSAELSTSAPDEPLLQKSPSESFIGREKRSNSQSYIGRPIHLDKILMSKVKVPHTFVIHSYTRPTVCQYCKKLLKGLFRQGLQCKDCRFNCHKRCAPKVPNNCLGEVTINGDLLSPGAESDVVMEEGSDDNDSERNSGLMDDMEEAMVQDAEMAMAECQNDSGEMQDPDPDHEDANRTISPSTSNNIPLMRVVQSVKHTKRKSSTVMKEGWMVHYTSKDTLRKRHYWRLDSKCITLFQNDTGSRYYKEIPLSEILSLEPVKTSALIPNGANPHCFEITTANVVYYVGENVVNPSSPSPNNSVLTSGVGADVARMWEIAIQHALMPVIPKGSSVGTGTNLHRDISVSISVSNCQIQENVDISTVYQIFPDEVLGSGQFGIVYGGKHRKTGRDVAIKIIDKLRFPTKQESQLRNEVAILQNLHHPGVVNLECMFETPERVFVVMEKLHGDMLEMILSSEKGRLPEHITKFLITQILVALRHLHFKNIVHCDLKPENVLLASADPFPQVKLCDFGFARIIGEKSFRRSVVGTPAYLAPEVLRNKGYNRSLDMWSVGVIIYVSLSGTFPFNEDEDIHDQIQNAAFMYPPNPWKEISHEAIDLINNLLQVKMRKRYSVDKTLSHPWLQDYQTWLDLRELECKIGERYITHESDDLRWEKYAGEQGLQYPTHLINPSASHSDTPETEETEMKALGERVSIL
# RGS16-Gao: RGS16-Galphao interaction regulator (human); O15492+P09471; bead-based flow cytometry RGS16-Galphao binding, fluorescence; actives lie on both sides; binding response (% of control), % at 10 µM; hit rate 0.38% among 220,000;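 active = below 25% or above 175%, edge rows of some plates excepted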;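 note: Galphao activated by GDP with aluminum fluoride before binding; 100% = wells without compound and 0% = beads without RGS; some results beyond the cut were filed as inactive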
# INS promoter inh cell count: recorded beside INS promoter inh, whose call it bears; normalized cell count, %; measured here: cell count, toxicity; reference of the scale not given here;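 cells exposed to compound for 48 h; stained nuclei by imaging scaled within each plate; lower means fewer cells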
# HSV replic up primary fold: second read-out of HSV replic up, no call of its own (marks repeat the call); fold increase; compound at 10 µM; measured here: primary screen fold increase 10 uM; tested in PC3 cells;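 GFP signal in the first replicate; 1 = infected wells without compound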
# * marks the source's active call; other numbers are inactive results; i = inactive; ? = inconclusive; . = no result given.
# Values in the order – HSV replic up	HSV replic up primary fold	GALR2 agonist	INS promoter inh	INS promoter inh cell count	PKD1 kinase inh	RGS16-Gao
O=C(NCc1ccccc1Cl)C1CCN(S(=O)(=O)N2CCCCCC2)CC1
  i	1.17	-0.8	.	.	-13.3	103.2
CC(C)c1nnc(SCC(=O)NCCC2=CCCCC2)n1N
  i	0.96	-0.8	-42.9	103.3	-6.1	97.0
CCC(=O)c1c[nH]c(C(=O)NCc2cccs2)c1
  i	0.95	.	.	.	.	100.3
COc1ccc(C(C)=O)cc1CSc1nnc(Nc2ccccc2C)s1
  i	0.94	-0.4	0.0	101.7	-9.8	109.0
CCc1cccc(N(CC(=O)NCc2ccc(F)cc2)C(=O)c2csnn2)c1
  i	0.95	.	-50.0	87.7	-6.5	143.3
CCCn1c(C)cc(C(=O)COc2ccc(C)nc2[N+](=O)[O-])c1C
  i	1.16	0.1	.	.	0.9	100.9
COc1ccc(N2CCN(CC(O)COC(C)(C)C)CC2)cc1 (centres undefined)
  i	0.96	.	60.0	102.7	-1.3	100.4
COc1ccccc1/C=N/NC(=O)COCC(=O)N/N=C/c1ccccc1OC
  i	1.1	.	.	.	-0.3	105.0
O=C1c2cccc([N+](=O)[O-])c2C(=O)N1c1cccnc1
  i	1.02	.	50.0	99.6	0.1	95.7
CC1(C)N=C(N)N=C(N)N1c1ccc(C(=O)O)cc1
  .	.	-2.7	16.4	122.5	-3.1	67.1
COc1ccc(S(=O)(=O)N2CCN(C(=O)NC3CCCCC3)CC2)cc1
  i	0.91	.	.	.	-1.1	106.3
COc1ccc(CCC(=O)NCc2cnn(C)c2)cc1
  i	1.12	-0.6	-34.5	115.0	5.4	100.1
Cc1ccc(OCC(=O)N2CCc3ccccc3C2)c([N+](=O)[O-])n1
  i	0.97	.	-53.3	56.1	5.2	45.3
O=C(N/N=C1\CC2CC=CC12)c1ccccc1Cl (centres undefined)
  i	0.82	.	.	.	-5.6	100.6
Cc1ccc(-c2cc(C(=O)N/N=C/c3c(C)nn(C)c3C)c3ccccc3n2)cc1C
  ?	.	-0.2	-5.4	120.1	-3.9	98.8
CNC(=S)N1CCC(n2cnc3ccccc32)CC1
  i	1.05	.	40.0	119.1	-2.4	111.6
O=c1cc(-c2ccccc2Cl)oc2c([N+](=O)[O-])c(O)cc(O)c12
  i	1.01	-2.2	40.0	138.3	10.4	101.4
Cc1nc(NC(=O)CN2CCC(O)(c3ccc(F)cc3)CC2)sc1C
  i	0.83	.	.	.	.	95.2
Cc1nc2c(O)cccc2cc1CO
  i	0.93	.	.	.	.	123.0
Cc1ccc(CN2CCN(CC(=O)N/N=C/c3ccccc3F)CC2)cc1
  i	1.2	.	.	.	.	97.4
CC(C)(C)NC(=O)C(=O)NNC(=O)c1ccccc1
  .	.	-1.7	4.3	88.4	-3.9	101.8
C=CCNC(=S)Nc1cccc2[nH]ncc12
  i	0.96	.	.	.	3.1	99.2
CN1C(=O)C(CC(N)=O)N(NC(=O)c2ccc(Cl)cc2)C1=S (centres undefined)
  i	0.71	-4.3	-11.1	151.7	-10.8	87.9
CCc1cccc(OCCOCCN2CCCC2)c1
  i	0.94	-2.0	-228.6	81.1	-2.3	100.4
Cc1cccc(N=Nc2c(C)nn(-c3ccccc3)c2N)c1C
  i	0.94	-2.3	27.3	88.3	10.7	199.5
Cc1nc2c(=O)n(-c3ccc(F)c(Cl)c3)nc(C)c2s1
  i	1.18	.	.	.	.	90.7
Cc1cc(/C=C(\C#N)c2nnc(N3CCOCC3)n2-c2ccccc2)c(C)n1-c1ccccc1
  i	1.02	-0.2	-66.7	58.1	-6.8	97.8
CCCNC(=O)CCc1c(C)nc2nc(-c3cc(OC)cc(OC)c3)nn2c1C
  i	1.02	-0.1	17.9	55.5	-6.2	102.9
CC(=O)C1C(c2cccc(F)c2)NC(=O)NC1(O)C(F)(F)F (centres undefined)
  .	.	-0.3	27.3	58.2	-13.3	98.5
Cc1ccc(C23CC4CC(CC(C(=O)N5CCN(C)CC5)(C4)C2)C3)cc1
  i	0.82	.	.	.	.	100.7
CCN(CC)S(=O)(=O)c1ccc(OC)c(NC(=O)c2ccc(=O)[nH]c2)c1
  i	0.82	.	.	.	.	96.0
CC(=O)Nc1ccc(S(=O)(=O)N2CCN(C(=O)c3ccccc3F)CC2)cc1
  i	0.94	-3.1	62.5	109.4	-5.9	81.2
COC(=O)C1CSc2[nH]c(=O)sc2C1c1ccc(OC)c(OC)c1 (centres undefined)
  i	0.89	-1.1	38.9	75.0	-9.9	97.2
NC(=O)C1CCN(C(c2ccccc2)c2nnnn2C2CCCC2)CC1 (centres undefined)
  i	0.99	-0.1	-190.5	113.8	-4.1	94.1
O=S(=O)([N-]c1nc2ccccc2nc1-[n+]1ccc(-c2ccncc2)cc1)c1ccccc1
  i	1.81	.	8.3	95.3	13.4	107.4
O=c1c(Cl)c(NCc2ccc(F)cc2)cnn1C12CC3CC(CC(C3)C1)C2
  i	0.92	0.0	41.4	125.3	-3.8	108.5
Cc1ccc(S(=O)(=O)CC(=O)Nc2ccc(S(=O)(=O)Nc3onc(C)c3C)cc2)cc1
  i	0.91	-2.1	-7.9	88.7	-2.2	92.7
CC(C)[C@H]1CN(C)CCN1Cc1cn(C)nc1-c1cccc(Cl)c1
  i	1.1	.	.	.	-4.2	98.2
CC(C)/C=C1\CCCCC1N(C)C(=O)NC(C)C (centres undefined)
  i	1.05	-0.9	21.4	71.2	2.8	97.9
CCN(N)C(=S)Nc1ccc(F)cc1
  i	1	.	-145.4	34.3	-3.1	110.1
CCOCC(=O)Nc1c(C(=O)Nc2ccc3c(c2)OCCO3)oc2ccccc12
  i	0.84	.	-50.0	167.8	2.1	140.2
Cc1ccc(-c2ccc(SCC(=O)N3CCc4ccccc43)nn2)cc1
  i	1.09	-0.7	.	.	-3.3	102.3
CC1CC1C(=O)Nc1nc(-c2ccccc2)cs1 (centres undefined)
  i	0.86	-2.6	-5.7	76.9	-3.6	98.5
COc1ccc(S(=O)(=O)N2CCCC2C(=O)Nc2nc3c(s2)CCCC3)cc1 (centres undefined)
  i	0.99	-2.4	-90.3	43.2	-6.0	106.5
Cc1cccc(Oc2ncnc3onc(C)c23)c1C
  i	1	-1.0	-5.4	95.4	-7.0	104.5
CNc1nc(SCc2ccccc2Cl)nc2c1CCCC2
  i	0.627	-0.1	.	.	-13.4	102.9
Cc1cc(C)nc(Sc2ccc3nnnn3n2)n1
  i	1.09	-1.1	.	.	1.3	100.8
O=C(CSc1nnc(Cc2cc(=O)[nH]c(=O)[nH]2)n1-c1ccc(Cl)cc1)NCC1CCCO1 (centres undefined)
  i	0.92	-1.8	.	.	-11.0	106.1
O=c1nc(NCc2ccco2)sc2ncccc12
  i	0.85	-2.0	-248.2	68.1	-18.3	104.5
Nc1nnc(SCC(=O)Nc2ccccc2N2CCOCC2)s1
  .	.	-2.3	-19.1	119.2	3.0	100.2

# Next part:
# Values in the order – HSV replic up	HSV replic up primary fold	GALR2 agonist	INS promoter inh	INS promoter inh cell count	PKD1 kinase inh	RGS16-Gao
COc1ccc(Oc2ccc(/C=N/NC(=O)c3cccnc3)cc2[N+](=O)[O-])cc1
  i	0.78	.	.	.	-10.3	102.6
C/C(=N\O)C1(C)N(O)C(C)(C)C(c2ccco2)=[N+]1[O-] (centres undefined)
  i	0.92	0.1	.	.	4.4	96.6
Cc1ccc2[nH]c(=O)c(COC(=O)C3CCCCC3)cc2c1
  i	0.89	.	.	.	.	106.5
O=C(CSc1nc2ncc(Cl)cc2[nH]1)NC1CCS(=O)(=O)C1 (centres undefined)
  i	0.95	.	.	.	-2.1	103.9
CCOC(=O)C1=C(N)OC2=C(C(=O)CC(C)(C)C2)C1c1ccco1 (centres undefined)
  i	1.05	-2.7	-72.4	97.8	-3.5	120.4
CC(=O)Nc1ccc(S(=O)(=O)N2CCN(Cc3ccccn3)CC2)cc1
  i	0.94	-1.3	-12.5	81.7	0.9	103.1
Cn1nnc2cc(C(=O)Nc3cccnc3)ccc21
  i	0.87	-2.1	-25.0	147.6	-5.4	109.4
O=C1c2ccccc2-n2c1nc1ccccc1c2=O
  i	1.08	.	.	.	-0.3	101.8
O=C(COc1cccnc1[N+](=O)[O-])N1CCc2ccccc21
  i	1.07	.	9.1	98.0	-0.7	84.1
COc1cc2c(cc1OC)C(C1C(=O)CC(C)CC1=O)N(C(=O)CCl)CC2 (centres undefined)
  i	1.15	-0.9	.	.	0.0	118.0
CCOC(=O)N1CCC(NC(=O)c2cccc3c2C(=O)N(CCOC)C3)CC1
  i	0.36	-2.0	.	.	-2.3	100.3
CCN(CC)C(=O)C1CC(=O)N(c2ccc(OC)cc2)C1c1ccc(OC)cc1 (centres undefined)
  i	1.06	-1.8	-21.1	202.4	-6.7	100.2
Cc1c(NC(=O)c2cccc(NC(=O)c3ccco3)c2)cccc1C(=O)O
  i	0.93	-1.2	56.2	128.8	2.7	100.4
O=C(N/N=C/c1ccco1)c1ccc(NC(=O)C2CC2)cc1
  i	1.04	.	38.9	73.0	-4.1	95.6
CCC(=O)N1c2ccccc2NC2=C(C(=O)CCC2)C1c1ccccc1 (centres undefined)
  i	0.87	0.2	-6.7	85.7	-3.4	115.6
COc1ccc(-n2cnc3cc(NCc4cccs4)ccc32)cc1
  .	.	-0.9	.	.	6.8	96.2
Cc1n[nH]c(C)c1S(=O)(=O)N(CC(=O)N1CCc2ccccc21)c1ccc(C(C)C)cc1
  i	0.77	2.8	.	.	-15.8	107.7
COc1cccc(-c2nnc(SCC(N)=O)n2-c2ccc(Cl)cc2)c1
  i	0.95	0.5	0.0	191.6	-17.3	102.6
O=C(Nc1ccccc1)N1CCCN(c2ccc(C(F)(F)F)cc2[N+](=O)[O-])CC1
  i	0.88	.	.	.	.	21.2*
Nc1nc2n(n1)C(c1cccs1)CC(c1ccccc1)N2 (centres undefined)
  i	1.06	-1.0	11.4	115.8	10.2	83.9

# Among those listed so far, 3 contain a thiophene ring, fused or not:
# Values in the order – HSV replic up	HSV replic up primary fold	GALR2 agonist	INS promoter inh	INS promoter inh cell count	PKD1 kinase inh	RGS16-Gao
CCC(=O)c1c[nH]c(C(=O)NCc2cccs2)c1
  i	0.95	.	.	.	.	100.3
COc1ccc(-n2cnc3cc(NCc4cccs4)ccc32)cc1
  .	.	-0.9	.	.	6.8	96.2
Nc1nc2n(n1)C(c1cccs1)CC(c1ccccc1)N2 (centres undefined)
  i	1.06	-1.0	11.4	115.8	10.2	83.9

# Additional entries
# Values in the order – HSV replic up	HSV replic up primary fold	GALR2 agonist	INS promoter inh	INS promoter inh cell count	PKD1 kinase inh	RGS16-Gao
Cc1cc(NC(=O)CC(F)(F)F)n(-c2ccccc2)n1
  i	0.82	.	35.0	127.8	-5.2	105.9
CC(C)OC(=O)CSc1nnc(-c2cccnc2)n1Cc1ccccc1
  i	0.84	-0.6	-26.3	119.3	-1.7	84.5
CCOC(=O)/C(C#N)=C\c1ccc(N2CCN(C/C=C/c3ccccc3)CC2)cc1
  ?	.	-1.0	.	.	0.7	101.6
COc1ccc(C2CC(c3ccc4ccccc4c3)=NN2C(=O)CSc2ncccn2)cc1 (centres undefined)
  i	0.87	1.1	.	.	-3.9	102.5
CCN1C(=O)c2ccc(C(=O)NCc3ccc4c(c3)OCO4)cc2C1=O
  i	0.89	-2.0	31.2	136.9	-3.1	106.2
CCOC(=O)Cn1c(-c2cccnc2Cl)nc2cc(C)c(C)cc21
  i	1.15	-0.9	8.7	109.7	-3.2	102.4
CCOc1ccc(-c2cnc(N)n2C)cc1
  i	0.98	.	-109.1	89.2	-8.5	100.8
CSc1ccc(Cl)c(C(=O)NCC(C)C)c1
  i	0.87	-4.9	-4.5	91.0	-1.2	97.1
CC(C)(C)NC(=O)NC(=O)CN1CCCCC1
  i	0.97	.	-5.0	96.8	-1.8	107.5
COc1ccc(C2(O)CCN(C(=O)c3ccc4c(c3)OCO4)CC2)cc1
  i	0.95	-0.1	.	.	1.4	97.3
Nc1ccc(C(=O)c2ccc3c(c2)OCCO3)cc1N
  i	0.88	0.5	-20.0	82.6	-4.5	.
NS(=O)(=O)c1ccc(N2N=C(c3ccccc3)CC2c2ccccc2)cc1 (centres undefined)
  i	0.84	5.4*	.	.	0.4	104.3
CCOC(=O)N1CCC(NC(=O)c2cccs2)CC1
  i	1.02	.	.	.	.	100.9
